StopGo FLuc = FMDV 2A StopGo reporter, firefly signal. HEK cells with a luciferase reporter of 2A StopGo recoding. Potency, µM (titrated, usually from 57.5 µM), for inactives: at the highest dose signal change, negative = less light. actives 0.23% (n = 120,000). AID 1745856; active = well fitted falling curve with a large enough effect; inconclusive = small, poorly fitted or top-dose-only effect; inactive = no such curve, though single readings can be large or run the other way; note: nearly all actives have a fitted effect of over 60% in size; overnight with compound
StopGo RLuc = FMDV 2A StopGo reporter, Renilla signal; HEK cells with a luciferase reporter of 2A StopGo recoding; Potency, µM (top dose mostly 57.5 µM), inactives show at the highest dose signal change, negative = less light; actives 0.32% (n = 120,000); active means well fitted falling curve with a large enough effect; inconclusive means small, poorly fitted or top-dose-only effect; inactive means no such curve, though single readings can be large or run the other way; note: nearly all actives have a fitted effect of over 55% in size; overnight with compound
Active calls of the source: *; ? = inconclusive; & = joins results of further samples; [ ] = remark or other dose. % is set by controls: 0 for no effect and ±100 for the full control effect; potency is the fitted concentration of half-maximal effect.

SMILES	StopGo FLuc	StopGo RLuc
O=C(c1ccc(Cl)cc1)N(Cc1cccnc1)Cc1cc2ccccc2[nH]c1=O	-7%	0%
CN(C(=O)C1CC1)c1ccccc1C(=O)NC1CCCc2ccccc21 (stereo not given)	-6%	6%
O=C(NC1CCCCC1)c1ccc(CSc2nc3cccnc3n2Cc2ccc(F)cc2)cc1	-19%	5%
O=C(CCCn1c(=O)c2cccn2c2cccnc21)NCc1ccccc1Br	2%	2%
O=C(CSc1nc(-c2ccc3c(c2)OCO3)nc2cc(=O)[nH]n12)NCCc1ccccc1	-9%	-7%
Cc1nn(-c2ccccc2)c(CSc2ccc3c(c2)OCCCO3)c1C#N	-8%	2%
Cc1ccc(C)c(NC(NC(=O)c2cccc(Cl)c2)C(Cl)(Cl)Cl)c1 (stereo not given)	-1%	15%
Cc1ccc(C(=O)N/N=C2/CC3CCC2(C)C3(C)C)cc1 (stereo not given)	23%	0%
CCOC(=O)C1CCN(c2cc(C)nc3c(-c4ccccc4OC)c(C)nn23)CC1	?	?
C=C(C)CC1(NCc2ccccc2)CCCCC1	-10%	3%
CCOC(=O)c1cnc(SCC(=O)Nc2cccc(Cl)c2C)nc1N	1%	-8%
CCc1c(C)sc(NC(=O)c2cc(-c3ccc(OC)c(OC)c3)on2)c1C#N	-11%	-3%
CCc1ccc(CNC(=O)c2cnc3sc(N4CCCCC4)nn3c2=O)cc1	7%	-9%
Cc1nc(C(=O)NC2CCCCC2)ccc1C#N	0%	19%
Cc1ccc(C(=O)Nc2cc3c(cc2C(=O)c2ccccc2)OCCO3)cc1	0%	-9%
O=C(CSc1cn(Cc2ccc(F)cc2)c2ccccc12)N1CCCC1	0%	0%
CC(C)(C)OC(=O)N1Cc2ccccc2C[C@H]1C(=O)Nc1ccc2c(c1)OCCO2	62%[activator]	0%
O=C(NCc1ccc(Cl)cc1)c1cnc2sc(N3CCCCCC3)nn2c1=O	-8%	-3%
COc1ccccc1-c1cc(NC(=O)C(C)OCC2CC2)n[nH]1 (stereo not given)	155%[activator]	8%
Cn1c(=O)n(C)c2cc(N3CCOCC3)c(NC(=O)COc3ccc(Cl)cc3)cc21	5%	13%
COc1cc(C=O)cc(Cl)c1OCc1ccc(F)cc1	36%[activator]	7%
O=C1CCCc2cc(S(=O)(=O)N3CCCC(C(=O)NCc4ccccc4Cl)C3)ccc2N1 (stereo not given)	-2%	18%
Cc1sc2c(c1C)c(=O)n(CCc1ccccc1)c(=O)n2Cc1ccc(F)cc1	-11%	-15%
Fc1ccccc1CSc1nc2ccccc2nc1SCc1ccccc1F	2%	-8%
Cc1nc2c3cccnc3nn2c(C)c1CCC(=O)NCc1ccccc1Cl	-9%	-9%
CCc1cccc(C)c1-n1nnnc1C(C)(CC)Nc1ccc2c(c1)OCCO2 (stereo not given)	-32%	60%[activator]
O=C(NC1CCCCC1)c1ccncc1	-4%	-3%
Cc1ccc(S(=O)(=O)Nc2ccc(Nc3ccc([N+](=O)[O-])cc3[N+](=O)[O-])cc2)cc1	12%	166%[activator]
NC(=O)COc1ccc(Cl)cc1Br	117%[activator]	-7%
Cc1ccc(-c2nnn(CCC(=O)Nc3sc4c(c3C#N)CCCC4)n2)cc1	-4%	-3%
Cn1c2c(c(=O)n(C)c1=O)C(c1ccccc1[N+](=O)[O-])CC(=O)N2 (stereo not given)	-8%	-9%
Cc1nnc2ccc(N3CCC(C(=O)Nc4ccc5c(c4)OCO5)CC3)nn12	158%[activator]	17%
COc1ccc(-c2noc(-c3ccc(N4CCCCC4)c([N+](=O)[O-])c3)n2)cc1	21%	-13%
Cc1ccc(NS(=O)(=O)c2cc(-c3ccc4nnc(C)n4n3)ccc2C)cc1	13%	189%[activator]
CN(C)c1ccc(NC(=O)CSC2=Nc3ccccc3C3=NC(CC(=O)NCc4ccccc4)C(=O)N23)cc1 (stereo not given)	-14%	14%
Cc1cc(C(C#N)c2ccc(Cl)cc2)c(Cl)cc1N (stereo not given)	14%	-8%[1.06 µM]
CCOC(=O)C1CCN(C(=O)Cn2nc(C)n3c(cc4cc(F)ccc43)c2=O)CC1	-15%	-7%
CC(C)=CC1C(C(=O)Nc2c(C)cc(C)cc2C)C1(C)C (stereo not given)	-7%	12%
Cc1cc(Cl)ccc1NS(=O)(=O)c1c(C(=O)N2CCC(C)CC2)c(C)n(C)c1C	-20%	250%[activator]
CCSc1nc(=O)c2c(n1C)NC(=O)CC2c1ccc(O)cc1OC (stereo not given)	3%	-4%
S=C1NC2(CCCCC2)NN1c1ccc(Cl)cc1	108%[activator]	5%[1.06 µM]
COc1ccc(C(=O)/C=C/c2cc(C)ccc2C)cc1OC	0%	0%
O=C(Cn1c(=O)nc(-c2ccccc2)c2cc(Cl)ccc21)NCCc1ccccc1	3%	1%
CCOc1cccc(CNCc2cccnc2)c1OCc1ccc(C)cc1	7%	-1%
CC1CCc2onc(C(=O)N3CCN(c4cccc(Cl)c4)CC3)c2C1 (stereo not given)	-9%	6%

Taken from above.
In StopGo RLuc, `S=C1NC2(CCCCC2)NN1c1ccc(Cl)cc1` has 5%[1.06 µM]
In StopGo RLuc, `Cc1cc(Cl)ccc1NS(=O)(=O)c1c(C(=O)N2CCC(C)CC2)c(C)n(C)c1C` has 250%[activator]
In StopGo RLuc, `CC(C)=CC1C(C(=O)Nc2c(C)cc(C)cc2C)C1(C)C` (stereo not given) has 12%
In StopGo RLuc, `Cc1cc(C(C#N)c2ccc(Cl)cc2)c(Cl)cc1N` (stereo not given) has -8%[1.06 µM]

One compound at a time, as listed above. Order of screens: StopGo FLuc	StopGo RLuc
Entry for `CN(C)c1ccc(NC(=O)CSC2=Nc3ccccc3C3=NC(CC(=O)NCc4ccccc4)C(=O)N23)cc1` (stereo not given) = -14%	14%
Entry for `S=C1NC2(CCCCC2)NN1c1ccc(Cl)cc1` = 108%[activator]	5%[1.06 µM]
Entry for `O=C(Cn1c(=O)nc(-c2ccccc2)c2cc(Cl)ccc21)NCCc1ccccc1` = 3%	1%
Entry for `CCOc1cccc(CNCc2cccnc2)c1OCc1ccc(C)cc1` = 7%	-1%
Entry for `CC1CCc2onc(C(=O)N3CCN(c4cccc(Cl)c4)CC3)c2C1` (stereo not given) = -9%	6%

(cont.)
SMILES	StopGo FLuc	StopGo RLuc
Cc1ccc(C)c(NC(=O)c2nn(C)c3c2CS(=O)(=O)c2ccccc2-3)c1	-8%	-3%
Cn1c(=O)[nH]c(=O)c2c1nc(SCC(=O)Nc1ccccc1)n2CCCc1ccccc1	4%	10%
COc1cc(NC(=O)c2cnn(-c3cccc(F)c3)c2C2CCNCC2)cc(OC)c1OC	-12%	-10%
COc1ccc(N2CC3=C(C2=O)C(c2ccc(O)c(OC)c2)NC(=O)N3C)cc1 (stereo not given)	-10%	3%
CN(C)CCOC(=O)C12CC3CCC(CC(C3)C1)C2	-1%	6%
O=C(NCc1ccc(Cl)cc1)N1CCN(C(=O)c2ccccc2)CC1	-8%	-19%
Nc1nc(COC(=O)c2cccc(Cl)c2Cl)nc2ccccc12	11%	-11%
O=C(Cn1nnnc1-c1ccccc1)N1CCCCC1	177%[activator]	3%
Cc1cccc(N2CCN(C(=O)c3nn(C)c4c3CS(=O)(=O)c3ccccc3-4)CC2)c1C	-14%	-12%
Cc1ccccc1C(=O)N1CCC(N2CCN(Cc3ccc(F)cc3)C(=O)C2=O)CC1	-4%	-1%
COc1cccc(-n2c(-c3ccco3)nc3c(cnn3-c3ccc(C)cc3)c2=O)c1	?	?
COc1cc(CN(C(=O)Nc2cccc(Cl)c2)c2ccccn2)cc(OC)c1OC	-1%	-10%
Cc1cc(NC(=O)c2nc3ccccc3nc2N2CCCCC2)ccc1Br	-5%	0%
CC(Nc1nc(-c2cccnc2)nc2ccccc12)c1ccccc1 (stereo not given)	-13%	-9%
Cc1ccc(-c2cc(C(=O)N3CCCC3)c3ccccc3n2)s1	60%[activator]	163%[activator]
Cc1cccc(NC(=O)Cn2c(=O)n(Cc3ccc4c(c3)OCO4)c(=O)c3ccccc32)c1	-12%	-5%
COc1ccccc1NC(=O)C(C)Sc1nc2ccccc2nc1C (stereo not given)	6%	13%
Cc1cc(S(=O)(=O)Nc2cc3c(cc2SC2CCCCC2)n(C)c(=O)n3C)ccc1F	-6%	-3%
Cc1ccc(C)c(N2CCN(S(=O)(=O)c3ccc(-c4coc(C)n4)cc3)CC2)c1	-8%&-9%	-9%&-6%
CCCCN(C)C(=O)Cn1c(C2CC(=O)N(c3ccc(C)cc3)C2)nc2ccccc21 (stereo not given)	-8%	-6%
CCN1CCC(CNCc2cccs2)C1 (stereo not given)	-8%	0%
CCOC(=O)c1nc2cc(C)c(C)cc2nc1NCc1ccco1	128%[activator]	18%
Cc1sc(NC(=O)CC2(CC(=O)O)CCCC2)c(C(N)=O)c1-c1ccc(C(C)C)cc1	-8%	-23%
N#Cc1c(NCc2ccncc2)nc(-c2ccccc2)c2c1CCCC2	-24%	-17%
Cc1ccc(-c2cc(C(=O)O)c3cccc(Cl)c3n2)o1	7%	-8%
COc1ccc(-c2nc(S(=O)(=O)c3ccc(C)cc3)c(NCc3ccccc3)o2)cc1	-5%	259%[activator]
CC1=C(C(=O)Nc2ccccc2)C(c2ccccc2C)n2nc(SCC(=O)c3ccc(C)cc3)nc2N1 (stereo not given)	29%	?
COc1cc(Nc2ncnc3scc(-c4ccc(Cl)cc4)c23)cc(OC)c1	0%	13%
COc1ccc(NCc2cccn2-c2nnc(N3CCCCCC3)s2)cc1	-9%	38%[activator]
O=[N+]([O-])c1cccc(/C=N/Nc2ccc(Cl)nn2)c1	18%	8%
COc1ccccc1-c1c(C)nn2c(SCC(=O)NCc3ccc(Cl)cc3)cc(C)nc12	-1%	-3%
C/C(=N\NC(=O)c1cccc(Br)c1)C(C)C	0%	1%
Cc1c(Cl)cccc1NC(=O)C(C)n1nc(C)c2c(C)n(-c3ccccc3)nc2c1=O (stereo not given)	-14%	-2%
COc1ccc(/C=C2\Oc3c(ccc(OS(C)(=O)=O)c3C)C2=O)c(OC)c1	0%	21%
COc1ccccc1Cn1cc(C(=O)c2ccc(Cl)cc2)c(=O)c2cc3c(cc21)OCCO3	3%	7%
CCN(CC)c1ccc(/C=N/NC(=S)Nc2cccc(C)c2)cc1	109%[activator]	38%[activator]
COc1ccc(CNC(=O)c2ccc(-c3nc(CSc4ccc(C)cc4)c(C)o3)cc2)c(OC)c1	-6%	-5%
N#Cc1ccnc(N2CCN(C(=O)Nc3cccnc3)CC2)c1	28%	5%
COc1cc2oc(=O)c(CC(=O)NCc3ccc(C)cc3)c(C)c2cc1Cl	7%	-3%
Cc1ccc(CNC(=O)C2CCCN(c3nnc(-n4c(C)ccc4C)s3)C2)cc1 (stereo not given)	0%	9%
COc1cccc(NC(=O)[C@H](Cc2ccccc2)n2c(=O)[nH]c3ccccc3c2=O)c1	13%	26%
Cc1cccc(N2C(=O)CC(c3c[nH]c4ccccc34)C2=O)c1 (stereo not given)	5%	-9%
Cc1cc(C(=O)NC2CCN(Cc3ccccc3)CC2)c2ccccc2n1	-2%	-13%
CC1CCCC(NC(=O)CSCc2cccs2)C1 (stereo not given)	76%[activator]	24%
N#Cc1cccc(Oc2cccc3cccnc23)c1C#N	0%	0%
CC1=C(C(=O)Nc2ccccc2)C(c2ccccc2C)n2ncc(C(=O)Nc3ccccc3)c2N1 (stereo not given)	?	-27%
O=S(=O)(NC1CCSc2c(F)cccc21)c1ccccc1 (stereo not given)	1%	54%[activator]
CCOc1ccccc1CNC(=O)c1ccc2c(c1)N(Cc1ccc(C)cc1)CCS2	0%	0%
COc1cc2cc(CNc3ccccc3)c(=O)n(CC(=O)Nc3cc(C)cc(C)c3)c2cc1OC	129%[activator]	-3%
CCOc1ccc2ccc(OCC)c(/C=C(\C#N)c3nc4ccccc4[nH]3)c2c1	-5%	0%
CN(C)C(CNC(=O)c1ccc(Br)o1)c1ccccc1 (stereo not given)	7%	-2%
Cc1cccc(OCC(=O)Nc2cccc(-c3nc4ccccc4s3)c2)c1	175%[activator]	14%
Cc1cccn2c(=O)c3cc(C(=O)NC(C)C)n(C)c3nc12	11%	4%
CCCCCCCOc1ccc(C2C3=C(CC(C)(C)CC3=O)OC3=C2C(=O)CC(C)(C)C3)cc1	12%	17%
O=S(=O)(Nc1ccc(Cl)cc1)c1cccc(S(=O)(=O)c2ccc(Cl)c(Cl)c2)c1	-31%	198%[activator]
CCN(c1ccc(-c2csc(C)n2)cc1)S(C)(=O)=O	73%[activator]	21%
CCOc1cc2c(cc1CNC(=O)c1cc(S(N)(=O)=O)ccc1Br)OC(C)C2 (stereo not given)	49%[activator]	49%[activator]
CC(=O)Nc1ccc2nc(NC(=O)CS(=O)(=O)c3ccc(C)cc3)sc2c1	-10%	-8%
Cc1cccc(C)c1NC(=O)Cn1nc(-c2cccs2)ccc1=O	-7%	-5%
COc1cccc(N2CC(NC(=O)c3ccc4c(c3)OCO4)CC2=O)c1 (stereo not given)	-15%	-9%

Rewritten with values under each structure: entries from further up
Screens in order – StopGo FLuc	StopGo RLuc
O=S(=O)(NC1CCSc2c(F)cccc21)c1ccccc1 (stereo not given)
→ 1%	54%[activator]
CCOc1ccccc1CNC(=O)c1ccc2c(c1)N(Cc1ccc(C)cc1)CCS2
→ 0%	0%
COc1cc2cc(CNc3ccccc3)c(=O)n(CC(=O)Nc3cc(C)cc(C)c3)c2cc1OC
→ 129%[activator]	-3%
CCOc1ccc2ccc(OCC)c(/C=C(\C#N)c3nc4ccccc4[nH]3)c2c1
→ -5%	0%
CN(C)C(CNC(=O)c1ccc(Br)o1)c1ccccc1 (stereo not given)
→ 7%	-2%

Remaining list, next part:
SMILES	StopGo FLuc	StopGo RLuc
N#C/C(=C/c1cccc(O)c1)C(=O)Nc1ccc(N2CCOCC2)cc1	12%	-8%
CNC(=O)NC(=O)CSc1ncnc2ccccc12	-6%	-21%
COc1cc(/C=C(\C#N)C(=O)C(C)(C)C)ccc1OCc1c(Cl)cccc1Cl	32%[activator]	4%
CN(CC(=O)NC(=O)NCC(F)(F)F)CC(=O)Nc1ccc(F)cc1	14%	10%
CCCCCCCC1C(C#N)=C(N)SC(N)=C1C#N	?	?

Screening results from PubChem.
